Screening data as filed in PubChem.
VCAM-1 rise – enhancers of VCAM-1 display on endothelial cells, cell-based, plate reader, pooled HUVEC, TNFa stimulus (AID 455); augmentation, % at 5 µM; 10,000 tested, 0.2% active; HUVEC TNFa-induced VCAM-1 immunofluorescence, plate reader; numbers were filed only for top-ranked candidate wells;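 active means a compound raising TNF-alpha-driven VCAM-1 surface staining, with its hit status upheld on visual or statistical review; inactive means the rest, including hits rejected on review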;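 further: 0% = TNFa with vehicle and 100% = strongest image-checked hit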
26S disassembly – blocks ATP-dependent breakdown of the yeast 26S proteasome. anti-FLAG beads, GFP-proteasome disassembly, flow cytometry. inhibition of disassembly, % (no concentration beside the values). 24,000 tested, 0.2% active. AID 751;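 active means above 40%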;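 further: plate controls were ATP control with full disassembly for no effect and ATP-gamma-S intact proteasomes for full effect; higher percent means more bead fluorescence retained so stronger block of disassembly; stock transfer was 100 nL into about 10 µL; wells with too few beads may also be inconclusive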
Starred values were filed as active, the others as inactive; i = inactive; nt = not tested or not shown.

VCAM-1 rise	26S disassembly	SMILES
i	-0.1	COc1ccc(OC)c(C2=Nn3c(nnc3C3CCCCC3)SC2)c1
i	10.9	COC(=O)c1sc(N2C(=O)C(O)=C(C(=O)c3ccc(C)o3)C2c2ccc(F)cc2)nc1C (configuration not stated)
nt	1.1	O=C(Cc1ccccc1)Nc1ccc(-c2nnc(-c3ccco3)o2)cc1
nt	0.3	CCCCCOc1ccc(C2C(C(C)=O)=C(C)Nc3ncnn32)cc1OC (configuration not stated)
nt	2.4	O=C(c1ccc(Br)o1)N1CCN=C1SCc1cccnc1
i	-0.2	CCC(C)(C)n1nnnc1C(c1cc2cc(OC)ccc2[nH]c1=O)N1CCc2ccccc21 (configuration not stated)
i	2.4	O=C(Nc1ccon1)c1cc(-c2ccccc2)nc2ccccc12
nt	-1.4	Cc1ccc(-c2nn(C)c(=O)c3ccccc23)cc1S(=O)(=O)N1CCCC1
i	-0.7	Cc1cc(C)n2c(SCCN3C(=O)c4ccccc4C3=O)nnc2n1
nt	0.1	CC1=C(C(N)=O)C(c2ccccc2)n2nc(-c3cccc(C)c3)nc2N1 (configuration not stated)
nt	-0.2	CSc1nnc(Cn2c(=O)sc3ccccc32)n1-c1ccccc1
nt	-0.3	Cc1ccc(-n2nc(C(=O)NCc3ccco3)c3c4ccccc4n(C)c3c2=O)cc1
i	-0.9	COc1ccc(S(=O)(=O)N(CCN2CCOCC2)Cc2cc(OC)ccc2OC)cc1
nt	4.3	CCOc1ccc(CCNC(=O)C2CCN(c3nn4c(=O)cc(C)nc4s3)CC2)cc1
i	2.8	O=C1CC(C(=O)Nc2ccccc2)C2(CCCC2)O1 (configuration not stated)
i	-1.2	CCOc1ccc(NC(=O)C2CC(=O)N(C(C)C)C2)cc1 (configuration not stated)
i	0.1	CCOc1ccccc1C1CC(=O)NC(SCC)=C1C#N (configuration not stated)
i	1.1	COc1cc2nc(SCC(=O)NC3CC3)n(CCC3=CCCCC3)c(=O)c2cc1OC
nt	0.2	Brc1ccc(-c2nnc3sc(CNCc4ccc5c(c4)OCO5)cn23)cc1
nt	-1.6	O=C(NCCc1ccccc1)C1CCN(S(=O)(=O)c2cccc3nonc23)CC1
nt	0.5	O=C(c1cnccn1)N(c1ccccc1)C1(C(=O)NC2CCCCC2)CCCCC1
nt	-0.2	COc1ccc(CCNC(=O)c2nnn(CC(=O)Nc3ccccc3)c2N)cc1OC
i	0.2	COc1ccc(C2(CN(C(C)=O)C(C)=O)CCCC2)cc1OC
i	-0.7	CCCc1cc(Nc2cccc(OC)c2)n2ncnc2n1
i	0.1	c1cc(C(c2nnnn2C2CCCC2)N2CCOCC2)ccn1 (configuration not stated)

Next part:
VCAM-1 rise	26S disassembly	SMILES
nt	0.6	O=C(O)CSc1c2c(nc3cc(C(=O)N4CCOCC4)ccc13)CCCC2
i	-0.4	O=C1CN(c2nc3ccccc3n3cnnc23)CC(=O)N1CCc1ccccc1
i	0.1	Cn1c(=O)c2c(nc(NCc3ccc4c(c3)OCO4)n2Cc2ccccc2F)n(C)c1=O
nt	-2.9	COc1ccccc1N(C(C)=O)C1SC(=O)N(c2ccccc2)C1=O (configuration not stated)
i	0.5	COC(=O)c1ccccc1NC1c2ccccc2C(=O)N1c1cccnc1 (configuration not stated)
i	-3.4	COc1cc(S(=O)(=O)NC2CCCCC2C)ccc1Cl (configuration not stated)
nt	-1.2	CN(C)CCNc1nc2c(c(=O)[nH]c(=O)n2C)n1CCCc1ccccc1
i	-5.9	O=C(Nc1ccccc1)N1C(=O)C2(OCCO2)c2ccccc21
nt	-1.8	Cc1cc(=O)n2nc(N3CCCC(C(=O)NCCC4=CCCCC4)C3)sc2n1 (configuration not stated)
i	-1.7	Cc1noc(C)c1CSc1nnc(-c2ccncc2)n1-c1cccc(Cl)c1C
i	-3.7	COCCn1c(N)c(C(=O)Nc2sc3c(c2C(=O)OC)CCCC3)c2nc3ccccc3nc21
nt	-1.6	Cn1c(=O)c2c(nc(Sc3n[nH]c(N)n3)n2Cc2ccccc2Cl)n(C)c1=O
i	1.7	CC(C)(C)NC(=O)CC(CC(=O)O)c1ccccc1 (configuration not stated)
i	-1.9	C=CCSC1=C(C#N)C(c2ccccc2Cl)CC(=O)N1 (configuration not stated)
i	1.2	CN(C)S(=O)(=O)Nc1ccccc1C(N)=O
nt	0.1	CCOC(=O)Cn1c(=O)oc2cc(S(=O)(=O)Nc3c(C)cc(C)cc3C)ccc21
nt	3.0	O=C(CCN1CCN(CCC(=O)c2ccccc2)CC1)c1ccccc1
nt	-2.5	COc1cc(C2N(c3ccc(Cl)c(Cl)c3)C(=O)C3CCCN32)cc(OC)c1OC (configuration not stated)
nt	-1.0	COc1cc2c(C(=O)N3CCCc4ccccc43)cn(C)c(=O)c2cc1OC
nt	4.4	Cc1cc2cc(CNC(=O)c3cc4ccccc4o3)ccc2n1C
i	-0.8	CC(C(=O)N1CCc2ccccc21)N1CCc2ccccc2C1 (configuration not stated)
i	-2.0	CCOC(=O)c1ccc(-n2c(=O)[nH]c3ccccc3c2=O)cc1
i	-2.0	CC(=O)c1c(C)nn(CC(O)COc2ccc3c(c2)CCC3)c1C (configuration not stated)
nt	-2.5	COc1ccc(-n2nnc3c(=O)n(CC(=O)NCC4CCCO4)cnc32)cc1 (configuration not stated)
nt	1.0	O=c1[nH]c(C2CCCN(S(=O)(=O)c3ccccc3)C2)nc2c1nnn2Cc1ccccc1F (configuration not stated)

Molecules listed so far that have bromine:
VCAM-1 rise	26S disassembly	SMILES
nt	2.4	O=C(c1ccc(Br)o1)N1CCN=C1SCc1cccnc1
nt	0.2	Brc1ccc(-c2nnc3sc(CNCc4ccc5c(c4)OCO5)cn23)cc1

(listing goes on)
VCAM-1 rise	26S disassembly	SMILES
nt	-2.1	Cn1c(=O)cc(OCC(=O)NCc2ccccn2)c2ccccc21
nt	-1.0	Cc1ccccc1-c1nc(CN2CCCC(C(=O)NCc3cccnc3)C2)c(C)o1 (configuration not stated)
nt	-0.7	CC1CCCC(NC(=O)c2cn(C)c3ccc(S(=O)(=O)N4CCCC4)cc3c2=O)C1C (configuration not stated)
nt	0.5	O=C(CC1CCCCC1)NCc1cn2ccsc2n1
nt	0.5	O=C(Nc1ccc(-n2nncc2-c2ccco2)cc1)c1ccc(F)cc1
i	1.0	CC(C)OP(=O)(c1ccc(N(C)C)cc1)C(O)c1ccccc1F (configuration not stated)
i	-1.7	CO[C@H]1C=CO[C@@]2(C)Oc3c(C)c(O)c4c(O)c(c(C=NN5CCN(C)CC5)c(O)c4c3C2=O)NC(=O)C(C)=CC=C[C@H](C)[C@H](O)[C@@H](C)[C@@H](O)[C@@H](C)[C@H](OC(C)=O)[C@@H]1C
nt	3.8	Cc1cc(C)n(-c2nc3ccccc3nc2Nc2ccc(CC(=O)O)cc2)n1
i	-1.9	CC(C)CCNC(=O)NC(=O)CN1C(=O)NC2(CCCCC2)C1=O
nt	-1.9	Cc1c(Cl)cccc1NC(=O)CC(NCCN1CCOCC1)C(=O)O (configuration not stated)
i	-0.9	CC(=O)O[C@]1(C(C)=O)CC[C@H]2[C@@H]3C=C(Cl)C4=CC(=O)CC[C@]4(C)[C@H]3CC[C@@]21C
i	0.5	CN(C)CCCN1c2ccccc2CCc2ccccc21
i	-0.7	CC(=O)OC(C(=O)NCc1ccco1)c1cccnc1 (configuration not stated)
i	-0.2	CCOC(=O)N1CCN(C(=O)C(NS(=O)(=O)c2cccc3nsnc23)c2ccccc2)CC1 (configuration not stated)
i	1.0	CCOc1ccccc1NC(=O)C1CCCN(S(=O)(=O)c2cccc3cccnc23)C1 (configuration not stated)
i	-0.5	CCOc1ccc(N(CC(=O)NCc2ccco2)S(=O)(=O)c2ccc(OC)c(OC)c2)cc1
nt	-0.2	Cc1cc(C)c(NC(=O)NC(=O)c2ccc(F)cc2)c(C)n1
nt	-3.2	O=C(O)CCCNc1cc(N2CCC3(CC2)OCCO3)c2noc3c2c1C(=O)c1ccccc1-3
nt	-1.6	Cc1ccc(C)c(N2CCN(C(=O)c3cc(S(=O)(=O)N4CCOCC4)ccc3F)CC2)c1
i	-3.6	Cc1sc2nc3n(c(=O)c2c1C)NC(=O)CC3
nt	0.3	Cc1ccc2cc3cc(C(=O)N4CCCCCC4)oc3nc2c1
nt	-0.5	CC(=O)c1c(N=CN(C)C)nc(C)nc1-c1ccccc1
nt	-1.7	COc1ccc(-n2nc(C(=O)Nc3ccc4c(c3)OCO4)c3ccccc3c2=O)c(OC)c1
i	-0.7	C/C(=N\O)C(=O)C(CN1CCCCC1)CN1CCCCC1
nt	31.4	CN(C)c1ccc(C2N(c3ccc(F)cc3)C(=O)C3CCCN32)cc1 (configuration not stated)

Quoted at random: 7 compounds from above.
VCAM-1 rise	26S disassembly	SMILES
nt	31.4	CN(C)c1ccc(C2N(c3ccc(F)cc3)C(=O)C3CCCN32)cc1 (configuration not stated)
i	1.0	CC(C)OP(=O)(c1ccc(N(C)C)cc1)C(O)c1ccccc1F (configuration not stated)
nt	0.5	O=C(CC1CCCCC1)NCc1cn2ccsc2n1
i	-3.6	Cc1sc2nc3n(c(=O)c2c1C)NC(=O)CC3
nt	-3.2	O=C(O)CCCNc1cc(N2CCC3(CC2)OCCO3)c2noc3c2c1C(=O)c1ccccc1-3
i	0.5	CN(C)CCCN1c2ccccc2CCc2ccccc21
nt	0.3	Cc1ccc2cc3cc(C(=O)N4CCCCCC4)oc3nc2c1

The listing continues:
VCAM-1 rise	26S disassembly	SMILES
i	-0.5	CN(C)CCCNC(=O)c1ccc(CN(c2ccccc2)S(C)(=O)=O)cc1
nt	2.4	CC(=O)N1CCc2cc(S(=O)(=O)NC(C(=O)NC3CCCc4ccccc43)C(C)C)ccc21 (configuration not stated)
i	-1.2	Cc1cc2oc(=O)cc(C)c2c(=O)o1
nt	-2.8	CCN(CC)S(=O)(=O)c1ccc(C(=O)NCc2n[nH]c(=S)n2Cc2ccccc2)cc1
nt	1.7	CCCC(=O)CN1C(=O)C2(OCCO2)c2ccccc21
i	-0.1	O=C(Nc1ccc(Br)c2cccnc12)c1ccc(Cn2cc(Cl)cn2)o1
nt	1.5	Cc1cc(C)c2c(=O)n(CC(=O)N3CCC(N4CCCCC4)CC3)sc2n1
i	-4.3	CC(C)[C@H](NC(=O)[C@@H]1CSCN1C(=O)OC(C)(C)C)C(=O)NCC1CCC(C(=O)O)CC1 (some centres not stated)
nt	-1.1	CCOC(=O)C1CCN(C(=O)CC2C(=O)N(Cc3ccccc3)C(C)c3nc4ccccc4n32)CC1 (configuration not stated)
i	0.2	O=C(NCC1CCCO1)c1ccccc1-c1nc(-c2ccc(Cl)cc2)no1 (configuration not stated)
nt	2.3	O=C(NCc1cccs1)C1CCCN(S(=O)(=O)c2ccc(Br)s2)C1 (configuration not stated)
i	-1.4	Cc1ccccc1NC(=O)c1ccc(NC(=O)c2ccco2)cc1
nt	-0.7	COc1ccc(NC(=O)CN2CCN(CC(=O)Nc3ccccc3F)CC2)c(OC)c1
nt	-5.7	CCOC(=O)c1sc2ccc(S(=O)(=O)N3CCCCC3)cc2c1N
nt	1.0	CCCS(=O)(=O)N1CCC(C(=O)NCCc2ccc(OC)c(OC)c2)CC1
nt	-0.6	O=C(Nc1ccc(F)cc1F)c1noc2c1CCC2
nt	0.6	COc1cccc(C(=O)N(CN2CCCC2=O)c2ccccc2OC)c1
i	0.7	O=C1NC2(Nc3ccccc31)C(=O)Nc1ccccc12 (configuration not stated)
nt	-2.7	O=C(NCC(c1cccnc1)N1CCN(c2ccc(F)cc2)CC1)c1cccc(Cl)c1 (configuration not stated)
i	2.0	CCOC(=O)C1CCN(C(=O)CN(c2ccc(Cl)c(C(F)(F)F)c2)S(C)(=O)=O)CC1
i	1.4	CC(=O)c1cccc(NC(=O)N2CCCc3ccccc32)c1
nt	0.8	Cc1ccc2c(c1)NC(=O)C(CC(=O)N(C)Cc1ccccc1)O2 (configuration not stated)
i	-0.6	Cc1cc(C)nc(N2CCC(C(=O)Nc3ccc4c(c3)CCC4)CC2)n1
i	-0.7	COc1ccc2nc(SCC(=O)NC(C)C)[nH]c2c1
nt	-1.2	Cc1cc2ccccc2c(=O)n1CC(=O)NCC(=O)N(C)Cc1ccccc1

Overlap with the part before: four compounds; new compounds follow.
VCAM-1 rise	26S disassembly	SMILES
nt	0.8	Cc1ccc2c(c1)NC(=O)C(CC(=O)N(C)Cc1ccccc1)O2 (configuration not stated)
i	-0.6	Cc1cc(C)nc(N2CCC(C(=O)Nc3ccc4c(c3)CCC4)CC2)n1
i	-0.7	COc1ccc2nc(SCC(=O)NC(C)C)[nH]c2c1
nt	-1.2	Cc1cc2ccccc2c(=O)n1CC(=O)NCC(=O)N(C)Cc1ccccc1
i	-2.0	COc1ccccc1CNC(=O)Nc1cccs1
nt	-1.8	CCN(CC)c1ccc(NC(=O)C2CCCN(S(=O)(=O)c3cccnc3)C2)c(C)c1 (configuration not stated)
nt	1.6	COc1ccc(C2=NOC(C(=O)Nc3ccc(C(C)=O)cc3)C2)cc1OC (configuration not stated)
nt	0.5	CCC(=O)N1CCN=C1SCc1ccccc1Cl
i	-1.0	c1ccc(-c2noc(-c3cccnc3)n2)nc1
i	-0.8	CCOC(=O)CNC(=O)CSc1nnnn1-c1cc(C)ccc1C
nt	2.2	CCOC(=O)N1CCC(NC(=O)c2cccnc2SC)CC1
nt	0.8	CCc1nc(C)cn1S(=O)(=O)c1cc(Br)ccc1OC
nt	-0.5	CCOC(=O)C1CCCN(c2ncnc3c2cnn3-c2ccc(Cl)cc2)C1 (configuration not stated)
nt	137.2*	COc1cccc(N2C(=O)C3CCCN3C2c2ccc(F)cc2)c1 (configuration not stated)
i	0.1	COc1cccc(-n2nnnc2SCC(=O)NCc2ccco2)c1
i	-0.3	COC(=O)c1cc(Oc2ccc(C(=O)OC)cc2N)cc(C(=O)OC)c1

A portion of the library (hit frequency here may not be typical).
